miR-21 FLuc – qHTS Assay for Modulators of miRNAs and/orActivators of miR-21. HeLa miR-21 FLuc reporter, luciferase, 48 h. AID 2288, 2010. 340,000 tested, under 10 active. Potency, µM (titrated, usually from 38.3 µM), for inactives: at the top dose reporter change, positive = more light; active = well fitted rising curve with a large enough effect; inconclusive = small, poorly fitted or top-dose-only effect; inactive = no such curve, though single readings can be large or run the other way;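 also: % of control where 0% means no effect; miR-21 action dims this reporter so a rising signal means less miR-21 action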
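Using DMEM plus 10% FBS, HeLa miR-21-FLuc cells are incubated with test compounds (final up to about 40uM) for 48 hours; firefly luciferase signal is then imaged following reagent-mediated lysis.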
An asterisk follows results filed as active. An excerpt. The share of hits here may be higher or lower than overall.

| Molecule | miR-21 FLuc |
| --- | --- |
| Cc1cc(C)c(C)c(OCC(=O)Nc2ccc(S(=O)(=O)Nc3nc(C)cc(C)n3)cc2)c1 | -7% |
| Cc1noc(/C=C/c2ccccc2F)c1S(=O)(=O)N1CCC(C(=O)Nc2ccc(C#N)cc2)CC1 | 19% |
| Brc1ccc2nc(-c3ccccc3)c(Nc3ccc4c(c3)OCO4)n2c1 | -5% |
| Cc1nn(C)c2c1c(C(F)(F)F)cc(=O)n2CC(=O)N1CCCCC1 | -2% |
| CCOC(=O)c1c(C)oc2nc(C)nc(N(CC(C)C)CC(C)C)c12 | 12% |
| COc1ccc(Nc2ncnc3onc(C)c23)cc1Cl | -2% |
| COc1cccc2sc(N3CCN(C(=O)CCS(=O)(=O)c4ccc(F)cc4)CC3)nc12 | 29% |
| CCCCNC(=O)c1cnc2c(-c3ccc(OCC)c(OCC)c3)c(C)nn2c1-c1ccccc1 | -10% |
| CC1=C(C(N)=O)C(c2ccc(C(C)C)cc2)n2nc(SCc3ccccc3)nc2N1 (centres undefined) | 0% |
| Cc1cccc(C)c1NC(=O)CSc1nc2ccccc2c2nc(CCc3c(C)n[nH]c3C)nn12 | 13% |
| COc1ccc(Nc2ncc3c(n2)CCN(C(=O)OC(C)(C)C)C3)cc1 | 11% |
| COc1ccc(-c2noc(COc3ccc(C)cc3C)n2)cc1OC | -8% |

(listing goes on)
| Molecule | miR-21 FLuc |
| --- | --- |
| CCOC(=O)c1cc(-c2ccccc2)n(-c2cccc(C(=O)Nc3cccc(C(C)=O)c3)c2)c1C | 20% |
| Cc1cc(C)cc(-n2ccn(Cc3ccccc3C)c(=O)c2=O)c1 | 1% |
| COc1ccc(CNc2nc(SCc3ccc(Cl)cc3)nc3ccccc23)cc1 | -10% |
| COc1ccc(C(=O)NCC(c2ccc(Cl)cc2)N2CCCCC2)cc1 (centres undefined) | 1% |
| COc1ccc(Cn2ccn(CC(=O)Nc3cc(C)ccc3C)c(=O)c2=O)cc1 | 13% |
| CCCCc1nn2c(C)c(-c3ccc(OCC)cc3)nc2s1 | -24% |
| Cc1cccc(C(=O)Nc2sc3c(c2C(=O)N2CCCCC2)CCC(C)C3)c1 (centres undefined) | -6% |
| CCOc1ccc(C2C(C(=O)Nc3ccc(C)cc3C)=C(C)Nc3c(C(=O)Nc4ccc(C)cc4)cnn32)cc1OC (centres undefined) | -4% |
| O=C(NCc1ccccc1)C(=O)Nc1c2c(nn1-c1ccc(F)cc1)CSC2 | -10% |
| COc1ccc(-c2noc(-c3ccccc3OCC(=O)Nc3ccc(C(C)=O)cc3)n2)cc1 | 20% |
| Cc1cc(C)cc(NC(=O)Cc2csc(C)n2)c1 | -2% |
| O=C(Cn1cc(C(=O)c2ccccc2)c(=O)c2cc3c(cc21)OCCO3)Nc1ccc(F)c(F)c1 | 30% |

Next section
| Molecule | miR-21 FLuc |
| --- | --- |
| COc1ccc(Br)cc1CNC(=O)CN1C(=O)CSc2ccc(S(=O)(=O)N3CCOCC3)cc21 | -4% |
| CC(=O)OCc1cnc(C)c2oc(=O)c(C(=O)Nc3ccc(F)cc3C)cc12 | 0% |
| COC(=O)c1c(C)sc(-c2c(-c3cccc(Cl)c3)[nH]c3c2c(=O)[nH]c(=O)n3C)c1O | -19% |
| COC(=O)c1sc(N2C(=O)c3oc4ccc(C)cc4c(=O)c3C2c2ccc(OC)cc2)nc1C (centres undefined) | 1% |
| CCn1c2c(c(=O)n3ncc(C(=O)Nc4cc(Cl)ccc4C)c13)CN(Cc1ccc(OC)cc1)CC2 | -2% |
| COc1ccc(N2CCN(C(=O)CCS(=O)(=O)c3cc4c(cc3Cl)NC(=O)CO4)CC2)cc1 | -1% |
| CC(C)CCNC(=O)[C@H](CC(C)C)NC(=O)[C@H]1O[C@@H]1C(=O)O | 1% |
| O=C(C1CCCN(S(=O)(=O)c2ccc(Br)s2)C1)N1CCN(c2ccc(F)cc2)CC1 (centres undefined) | -1% |
| Cc1ccc(Cc2nc3ccccc3nc2SCC(=O)Nc2cccc(C(F)(F)F)c2)cc1 | 0% |
| COc1cccc(NC(=O)C(=O)NCC(c2ccc3c(c2)OCO3)N2CCN(C)CC2)c1 (centres undefined) | -75% |
| Cc1ccc(NCc2nnc3n2CCCCC3)cc1Cl | -12% |
| Cc1ccc(OCC(=O)NCC2(N3CCN(C)CC3)CCCCC2)cc1C | -20% |

(further entries)
| Molecule | miR-21 FLuc |
| --- | --- |
| CCN(CC)CCOC(=O)c1ccc(NC(=O)c2cc3c(s2)-c2ccccc2OC3)cc1 | -14% |
| Cc1ccc(-c2ccc(=O)n(CC(=O)Nc3ccc(F)c(Cl)c3)n2)cc1C | 2% |
| O=C(NCc1ccc(F)cc1)C1CCN(C(=O)c2cnn(-c3ccccc3)c2-n2cccc2)CC1 | 8% |
| COCCn1c(C)cc(O)c(C(c2ccccc2)N2CCN(C)CC2)c1=O (centres undefined) | -3% |
| Cc1ccc(NS(=O)(=O)c2cc(-c3cnc(C4CC4)o3)ccc2C)cc1Cl | -5% |
| Cc1cccc(NS(=O)(=O)c2ccc3oc(=O)c4ncn(C)c4c3c2)c1C | 1% |
| CCc1ccc(NC(=O)c2ccc3c(c2)nnn3CC)cc1 | -52% |
| Cc1cc(NC(=O)C2CCN(S(=O)(=O)c3ccc(Br)s3)CC2)ccc1Br | 0% |
| Cc1ccccc1-c1noc(-c2ccc(NCC3CCCO3)c([N+](=O)[O-])c2)n1 (centres undefined) | -6% |
| CC(=O)N1CCCc2cc(S(=O)(=O)N(C)CC(=O)Nc3cccc(C)c3C)ccc21 | 3% |
| CCOC(=O)c1ccc(NC(=O)CSc2c3c(nc4cc(Cl)ccc24)CCCC3)cc1 | 2% |
| Cc1ccc(NC(=O)Cn2c(=O)n(Cc3ccc4c(c3)OCO4)c(=O)c3ccc(C(=O)NC4CCCCC4)cc32)cc1 | -8% |

The list goes on.
| Molecule | miR-21 FLuc |
| --- | --- |
| CC(=O)c1ccc(C(=O)N(Cc2cccnc2)c2nc3c(C)c(C)ccc3s2)cc1 | 8% |
| CCCC1=Nc2cc(C(=O)NCc3ccc(OC)cc3)ccc2Sc2ccc(C)cc21 | 24% |
| Cc1ccc(C2c3cccn3CCN2S(=O)(=O)c2ccc([N+](=O)[O-])cc2)cc1 (centres undefined) | 8% |
| CCOc1ccc(CC(=O)NCc2ccc3c(c2)CCN3C(=O)c2ccc(F)cc2)cc1OCC | 19% |
| Cn1nnnc1SCCNCc1ccccc1Cl | -15% |
| CC(C(=O)Nc1ccccc1)n1nnc2sc3c(c2c1=O)CCCC3 (centres undefined) | 12% |
| CC(=O)Nc1ccc(NC(=O)C2CCN(S(=O)(=O)c3ccc4c(c3)CCCC(=O)N4)CC2)cc1 | -1% |
| COc1ccc(NC(=O)C2=C(C)Nc3nc(SCc4ccccc4C)nn3C2c2ccc(Br)cc2)cc1 (centres undefined) | -6% |
| O=C(Nc1ccc(F)cc1F)c1cccc2c1C(=O)N(C1CCCCC1)C2 | -1% |
| COc1ccc(N2CCN(C(=O)COc3ccccc3C#N)CC2)cc1 | -15% |
| Cc1ccc(CNC(=O)c2ccc3c(c2)N(Cc2cccc(Cl)c2)C(=O)CS3)cc1 | 30% |
| O=C(CCCn1c2ccccc2c(=O)c2ccccc21)Nc1ccc(F)cc1Cl | 18% |

6 entries out of the list, sorted by length of the SMILES, smallest number first.
| Molecule | miR-21 FLuc |
| --- | --- |
| COc1ccc(-c2noc(COc3ccc(C)cc3C)n2)cc1OC | -8% |
| CCOC(=O)c1c(C)oc2nc(C)nc(N(CC(C)C)CC(C)C)c12 | 12% |
| O=C(CCCn1c2ccccc2c(=O)c2ccccc21)Nc1ccc(F)cc1Cl | 18% |
| Cc1cc(NC(=O)C2CCN(S(=O)(=O)c3ccc(Br)s3)CC2)ccc1Br | 0% |
| Cc1ccccc1-c1noc(-c2ccc(NCC3CCCO3)c([N+](=O)[O-])c2)n1 (centres undefined) | -6% |
| CCOc1ccc(CC(=O)NCc2ccc3c(c2)CCN3C(=O)c2ccc(F)cc2)cc1OCC | 19% |

Next section:
| Molecule | miR-21 FLuc |
| --- | --- |
| CCOc1ccc(CNC(=O)C2CCN(S(=O)(=O)N3CCCCC3)CC2)cc1 | -1% |
| CCN1CCN(c2ccc(NS(=O)(=O)c3c(C)nc4sccn4c3=O)cc2Cl)CC1 | 12% |
| COc1ccc(CNC(=O)CCC2N=C3c4ccccc4N=C(SCc4ccccc4F)N3C2=O)cc1 (centres undefined) | -14% |
| Cc1cc(Nc2ccccc2O)nc(C)n1 | -13% |
| O=S(=O)(NCCc1csc2nc(-c3ccc(Cl)cc3)nn12)c1cccs1 | 19% |
| COCCCNc1nc2c(c(=O)[nH]c(=O)n2C)n1CC(O)COc1ccc(Cl)cc1 (centres undefined) | -1% |
| CCN(c1ccccc1)S(=O)(=O)c1ccc2[nH]cc(C(=O)NCc3ccc(C)cc3)c(=O)c2c1 | 2% |
| CCOc1ccc2nc(N3CCCC(C(=O)NCc4ccc(C)cc4)C3)sc2c1 (centres undefined) | -19% |
| CCn1c(=O)c2cc(C(=O)N3CCN(c4cccc(OC)c4)CC3)sc2c2ccccc21 | 26% |
| Cc1cc(C(=O)NCc2ccc(Cl)cc2)c2c(C)nn(-c3ccccc3)c2n1 | 0% |
| CCOc1ccc(NC(=O)C(CC(C)C)N2Cc3ccccc3C2=O)cc1 (centres undefined) | 1% |
| CCOc1ccc(-c2ccc(NS(=O)(=O)c3cc(C)c(C)cc3C)cc2)nn1 | 8% |

(continued)
| Molecule | miR-21 FLuc |
| --- | --- |
| CC1=C(C(=O)Nc2ccc(C)cc2C)C(c2ccc([N+](=O)[O-])cc2)n2ncc(C(=O)Nc3ccc(F)cc3)c2N1 (centres undefined) | 14% |
| O=C(c1ccc(F)cc1)N1c2nc(-c3ccco3)nn2C2(CCCCC2)[C@@H]2CCCC[C@@H]21 | 1% |
| CCOc1ccccc1C(=O)N(Cc1ccc(N(C)C)cc1)Cc1ccco1 | 15% |
| COc1cccc(C(=O)c2cn(CC(=O)NCc3ccccc3)c3nc(C)ccc3c2=O)c1 | 2% |
| Cc1ccc(C)c(Cn2c3ccccc3c3cnn(CC(=O)NCCCc4ccccc4)c(=O)c32)c1 | 0% |
| COc1cc(OC)cc(-c2nnc(SCC(=O)c3ccc([N+](=O)[O-])cc3)o2)c1 | 0% |
| CCC(C)n1c(=O)c2sccc2n2c(CCCC(=O)N3CCN(c4ccccc4)CC3)nnc12 (centres undefined) | 14% |
| O=C(c1cccs1)c1cn(CCOc2ccc(F)cc2)c2ccccc12 | 16% |
| O=C(Nc1ccc(C(F)(F)F)cc1)C1CCCN(c2cnccn2)C1 (centres undefined) | -4% |
| Cc1ccc(OCC(=O)Nc2ccc3c(c2)nc(CCNC(=O)c2ccco2)n3C)cc1 | 14% |
| COc1cccc(-c2nc(Cn3c(=O)cc(C)c4c(C)nn(-c5ccccc5)c43)c(C)o2)c1OC | -18% |
| Cc1ccc(NC(=O)c2nc(S(C)(=O)=O)ncc2N(Cc2ccco2)Cc2ccco2)cc1 | 15% |

Further structures
| Molecule | miR-21 FLuc |
| --- | --- |
| CCOC(=O)Cc1cc(C(=O)Nc2ccc(Br)cc2)sc1-c1ccc(C)cc1 | 19% |
| CC1=C(C(=O)Nc2ccccc2C)C(c2sccc2C)n2ncnc2N1 (centres undefined) | 3% |
| O=C(c1ccco1)N(Cc1cccnc1)c1nc2c(F)cccc2s1 | -18% |
| COc1ccc(CCNC(=O)c2ccc3nc(CCc4ccccc4)oc3c2)cc1OC | -13% |
| CC(C)c1cc(-c2nc(-c3ccc(Br)cc3)no2)n[nH]1 | -39% |
| COc1ccc(-c2nc(CNC(=O)NC3CCCCC3)c(C)o2)c(OC)c1 | 4% |
| CCOC(=O)c1c(C)c(-c2ccccc2)n(CC(=O)NC2CCCCC2)c1C | -8% |
| Cc1ccccc1CN1C(=O)c2ccccc2Sc2ccc(C(=O)NC3CCCCC3)cc21 | -2% |
| COC(=O)c1cnc(N2CCN(c3ccccc3F)CC2)c2ccccc12 | -9% |
| CC(C)Cc1nn2c(=O)cc(COC(=O)c3ccc(NC(=O)c4cccs4)cc3)nc2s1 | -7% |
| COc1ccc(CCn2c3c(c(=O)[nH]c2=O)C(NC(=O)c2ccc(Cl)cc2)(C(F)(F)F)C(=O)N3)cc1OC (centres undefined) | 0% |
| CCOC(=O)c1ccc(N2CC3=C(C2=O)C(c2ccc(OC)cc2)NC(=O)N3C)cc1 (centres undefined) | -1% |

(further entries)
| Molecule | miR-21 FLuc |
| --- | --- |
| CCCCCNC(=O)C(=O)NCC(c1ccc2c(c1)OCO2)N1CCOCC1 (centres undefined) | 2% |
| COCC(=O)N1c2nc(-c3ccco3)nn2C2(CCCCC2)[C@@H]2CCCC[C@@H]21 | -3% |
| COc1cccc(N2C(=O)CSC23C(=O)N(CC(=O)NCc2ccc(C)cc2)c2ccccc23)c1 (centres undefined) | -5% |
| Cc1ccc2oc(C(=O)Nc3ccc(S(=O)(=O)Nc4nccc(C)n4)cc3)cc(=O)c2c1 | -3% |
| CCOc1ccc(CCNC(=O)CCn2c(=O)c3cccn3c3cccnc32)cc1 | 4% |
| COC(=O)c1ccccc1NC(=O)c1ccc2c(c1)CCN2S(=O)(=O)c1ccc(Cl)cc1 | 2% |
| CCc1sc(Nc2ccc(C)cc2Br)nc1-c1cc2cccc(OC)c2oc1=O | 7% |
| CCC1CN(C(=O)N2CCC(C(=O)NCCN(C)C)CC2)c2ccccc2O1 (centres undefined) | -8% |
| CCOc1ccc(Nc2c(S(=O)(=O)c3ccc(C)cc3)cnc3ccc(OC)cc23)cc1 | 8% |
| COc1ccc(OC)c2sc(N3CCN(C(=O)CCS(=O)(=O)c4ccc(F)cc4)CC3)nc12 | 10% |
| COc1ccc(NS(=O)(=O)c2ccc3[nH]c4c(c3c2)CCCCCC4)cc1 | 4% |
| CC(C)(C)c1ccc(C(=O)NC(Cc2c[nH]c3ccccc23)C(=O)OCC(=O)c2ccccc2)cc1 (centres undefined) | -27% |

From PubChem BioAssay
